Assay outcomes (PubChem BioAssay)
gsp antagonist = gsp mutant antagonism | Potency, µM (top dose mostly 76.9 µM), for inactives: top-dose activity change, negative = inhibition, actives largely listed as inhibitors | AID 624288 | 0.4% of 340,000 active | gsp-mutant cells, cAMP HTRF, 30 min; control for the full effect not named in the record; active = falling curve of any shape with a large fitted effect; inconclusive = falling curve, mostly with a smaller effect; inactive = flat or rising curve; cell line not stated here;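 also: intracellular cAMP measured with PDE inhibitor Ro 20-1724 present during compound exposure; potency is read from the fitted curve at half-maximal effect; % is scaled to controls: 0 for no effect and ±100 for the full control effect; nearly all actives have a fitted effect of over 65% in size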
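HTRF cAMP read-out (cAMP-d2 plus anti-cAMP antibody-K in lysis buffer, 30 min RT). Before lysis, cells are exposed to compounds with […] for 30 min at 37C in DPBS containing Ca/Mg, BSA and Tween 20.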
Menin-MLL FL inh = menin-MLL binding inhibition, fluorescein peptide; Fluorescence polarization, fluorescein-MLL peptide displacement from menin; 290,000 tested, under 10 active; FP activity change, % at 61.4 µM; inconclusive = falling polarisation curve, or a change in total fluorescence; inactive = total fluorescence flat and polarisation flat or rising; no compound was filed as active; the % refers to the polarisation; negative = inhibition;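 also: % of control where 0% means no effect; inhibitors lower the polarisation; unlabelled MLL peptide was the positive control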
CtBP-E1A inh = blocks the CtBP interaction with E1A | 0.49% of 340,000 active | activity change, % (test concentration not listed) | AlphaScreen GST-E1A/His-CtBP binding, 1536-well; active compounds read low; control for the full effect not named in the record | AID 651724; in the data active means activity change below about -65%; inconclusive means about -30% to -65%; inactive means above about -30%; also: % is scaled to controls: 0 for no effect and ±100 for the full control effect
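AlphaScreen with 125 nM GST-E1A and 125 nM His-CtBP (5X stocks) in Tris pH 8.0, 300 mM NaCl, BSA, Tween 20, TCEP. Compounds preincubated 2 h at 37 deg C, then glutathione donor/nickel acceptor beads added for 1 h at 37 deg C in dark.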
ClpP mod = qHTS Assay for Activators of ClpP; purified B. subtilis ClpP, FRET peptide cleavage, 20 min; Potency, µM (series often up to 57.5 µM), inactives show at the top dose activity change, negative = active; 1.9% of 340,000 active; active = well fitted falling curve with a large enough effect; inconclusive = small, poorly fitted or top-dose-only effect; inactive = no such curve, though single readings can be large or run the other way; also: potency is read from the fitted curve at half-maximal effect; the source files actives as falling curves though it sought activators and does not explain the sign; nearly all actives have a fitted effect of over 65% in size; many hits overshoot -100%
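Buffer: 100 mM Tris/HCl pH8, 100 mM KCl, 0.05% low protease BSA, 2.5% glycerol, 0.01% Tween-20. ClpP 10 microg/mL final; 20 min RT; delta FRET normalized to ADEP and DMSO controls.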
TRPV1 PAM = human TRPV1 potentiation; TRPV1-expressing cells, Fluo-8 calcium influx, capsaicin EC20 potentiation; host cell line not named in the record; control for the full effect not named in the record; Q8NER1; 0.02% of 320,000 active; AID 540277; potentiation, % at 8.33 µM; active means potentiation above 80%; inconclusive means 30% to 80%; inactive means below 30%; also: 0% is about no effect
Target sequence (Q8NER1 whole entry, looked up): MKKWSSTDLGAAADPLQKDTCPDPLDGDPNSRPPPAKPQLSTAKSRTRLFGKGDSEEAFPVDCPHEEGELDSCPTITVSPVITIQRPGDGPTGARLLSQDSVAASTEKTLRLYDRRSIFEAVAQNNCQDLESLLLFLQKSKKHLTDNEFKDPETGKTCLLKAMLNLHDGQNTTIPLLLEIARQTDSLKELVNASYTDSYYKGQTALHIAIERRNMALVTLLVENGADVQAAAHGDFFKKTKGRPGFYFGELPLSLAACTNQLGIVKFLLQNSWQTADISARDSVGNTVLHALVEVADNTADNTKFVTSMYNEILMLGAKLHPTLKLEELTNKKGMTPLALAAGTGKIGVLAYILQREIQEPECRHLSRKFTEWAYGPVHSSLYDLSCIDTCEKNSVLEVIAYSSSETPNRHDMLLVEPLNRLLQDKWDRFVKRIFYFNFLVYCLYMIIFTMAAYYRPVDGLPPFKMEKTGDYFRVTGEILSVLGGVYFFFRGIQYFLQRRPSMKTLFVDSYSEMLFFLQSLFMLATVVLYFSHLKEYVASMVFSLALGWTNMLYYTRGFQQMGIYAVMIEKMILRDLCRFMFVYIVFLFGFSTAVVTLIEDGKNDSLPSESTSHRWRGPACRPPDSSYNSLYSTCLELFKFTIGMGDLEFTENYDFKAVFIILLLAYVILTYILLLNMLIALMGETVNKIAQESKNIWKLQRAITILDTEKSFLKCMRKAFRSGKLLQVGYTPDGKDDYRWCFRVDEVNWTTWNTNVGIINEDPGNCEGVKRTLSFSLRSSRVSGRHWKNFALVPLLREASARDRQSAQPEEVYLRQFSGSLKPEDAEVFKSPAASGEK
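Cells expressing TRPV1 were dye-loaded with Fluo-8 and read kinetically: 10 s baseline, 3 min after compound (agonist portion), then 2 min after EC20 capsaicin (allosteric enhancer portion). Calcium-bound dye fluorescence at 480/520 nm.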
gsp agonist = gsp mutant agonism. Potency, µM (highest dose often 76.9 µM), for the others: top-dose activation (cAMP increase), most hits filed as activators. 0.13% of 340,000 active. gsp mutant cells, cAMP HTRF, 30 min; control for the full effect not named in the record. AID 624287; active = well fitted activation curve with a large enough effect; inconclusive = small, poorly fitted or top-dose-only effect, or another doubt; inactive = no such curve, though single readings can be large or run the other way; cell line not stated here;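 also: phosphodiesterase inhibitor Ro 20-1724 added with compounds to block cAMP breakdown; potency is read from the fitted curve at half-maximal effect; nearly all actives have a fitted effect of over 60% in size; about a fifth of the inactives were tested at one dose only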
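Cells stably selected in G418 were plated at 2000/well, grown 16-24 hr, then given compounds in DMSO with the PDE inhibitor […] (300 uM solution added) for 30 min at 37C; cAMP was read by HTRF.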
Sfp PPTase inh = blocks B. subtilis Sfp PPTase activity; Biochemical Sfp PPTase activity, qHTS; 3.5% of 310,000 active; AID 1490; Potency, µM, for the others: max response, negative = inhibition, most hits filed as inhibitors; Q9F4F7; active = well fitted inhibition curve with a large enough effect; inconclusive = small, poorly fitted or top-dose-only effect, or another doubt; inactive = no such curve, though single readings can be large or run the other way;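 also: the enzyme is Sfp with the accession as filed and its product quenches rhodamine fluorescence; potency is read from the fitted curve at half-maximal effect; 0% = enzyme reaction without inhibitor and -100% = no enzyme wells; top concentration of the series not given in the record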
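Fluorescence-quenching assay with 15 nM Sfp, 5 uM rhodamine-CoA and 12.5 uM BHQ-2-labelled ybbR peptide in pH 7.6 Hepes/MgCl2 buffer. Enzyme was pre-incubated with compound for 15 min at room temperature. Rate was taken from the 30-min fluorescence change (525/598 nm).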
* hit, by the source's call; ? = inconclusive; · = no result given; [ ] = dose if it differs, or a comment.

SMILES | gsp antagonist | Menin-MLL FL inh | CtBP-E1A inh | ClpP mod | TRPV1 PAM | gsp agonist | Sfp PPTase inh
O=C(NCc1ccncc1)C1=NN(c2ccccc2)C(=O)CC1 | 3% | 0.5 | 4 | · | -6 | -19%[15.4 µM] | 13%
C=CCn1c(SCC(=O)NC(=O)c2cccn2C)nc2ccccc2c1=O | -22% | 0.0 | -16 | · | -8 | -12%[15.4 µM] | 5%
CC1=C(C(=O)N2CCOCC2)CC(CC(=O)NCc2ccco2)C(=O)N1Cc1ccc(C(C)(C)C)cc1 (stereo not drawn) | · | · | -9 | 1.8% | · | 27% | ·
N#CCC(=O)Nc1ncc(Cc2ccccc2Cl)s1 | 4% | -1.4 | -4 | -7.2% | 2 | 1% | 12%
COC(=O)c1c(NC(=O)c2ccoc2C)sc2c1CCC2 | 2% | 3.8 | 1 | 32µM* | 20 | 36% | ?
Cc1cc(C)c(S(=O)(=O)NCC2CCC(C(=O)NCc3ccc4c(c3)OCO4)CC2)c(C)c1 (stereo not drawn) | -10% | 0.3 | 7 | 0.5% | 3 | -6% | 2%
CC(C)NC(=S)NNc1ncnc2sc3c(c12)CC(C)(C)OC3 | -3% | · | -4 | 0.3% | · | 6% | ·

Single entries from the entries so far.
Entry of CC1=C(C(=O)N2CCOCC2)CC(CC(=O)NCc2ccco2)C(=O)N1Cc1ccc(C(C)(C)C)cc1 (stereo not drawn) in ClpP mod: 1.8%
Entry of N#CCC(=O)Nc1ncc(Cc2ccccc2Cl)s1 in CtBP-E1A inh: -4

Part of the list above, comma-delimited.
smiles,gsp antagonist,Menin-MLL FL inh,CtBP-E1A inh,ClpP mod,TRPV1 PAM,gsp agonist,Sfp PPTase inh
C=CCn1c(SCC(=O)NC(=O)c2cccn2C)nc2ccccc2c1=O,-22%,0.0,-16,·,-8,-12%[15.4 µM],5%
COC(=O)c1c(NC(=O)c2ccoc2C)sc2c1CCC2,2%,3.8,1,32µM*,20,36%,?
Cc1cc(C)c(S(=O)(=O)NCC2CCC(C(=O)NCc3ccc4c(c3)OCO4)CC2)c(C)c1 (stereo not drawn),-10%,0.3,7,0.5%,3,-6%,2%

Full records as entered above. Order of values: gsp antagonist, Menin-MLL FL inh, CtBP-E1A inh, ClpP mod, TRPV1 PAM, gsp agonist, Sfp PPTase inh
CC(C)NC(=S)NNc1ncnc2sc3c(c12)CC(C)(C)OC3 as listed: -3%, ·, -4, 0.3%, ·, 6%, ·
CC1=C(C(=O)N2CCOCC2)CC(CC(=O)NCc2ccco2)C(=O)N1Cc1ccc(C(C)(C)C)cc1 (stereo not drawn) as listed: ·, ·, -9, 1.8%, ·, 27%, ·
